TRPML1 blocker: qHTS for Inhibitors of the Human Mucolipin Transient Receptor Potential 1 (TRPML1) | Mucolipin-1 (Homo sapiens), Q9GZU1 | TRPML1-inducible cells, Ca2+ dye fluorescence, FDSS; hits give low values; inhibition of EC80 agonist-evoked calcium signal | activity change, negative = inhibition, % (no concentration beside the values) | 0.02% of 390,000 active | AID 624415, 2012; in the data active means activity change below about -50%; inconclusive means about -30% to -50%; inactive means above about -30%;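 note: stimulus is agonist 54-4 at its EC80 concentration; % is set by controls: 0 for no effect and ±100 for the full control effect; compound concentration not given in the record; the text of the record puts the active cut at -80%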
Target sequence (Q9GZU1 whole entry, looked up): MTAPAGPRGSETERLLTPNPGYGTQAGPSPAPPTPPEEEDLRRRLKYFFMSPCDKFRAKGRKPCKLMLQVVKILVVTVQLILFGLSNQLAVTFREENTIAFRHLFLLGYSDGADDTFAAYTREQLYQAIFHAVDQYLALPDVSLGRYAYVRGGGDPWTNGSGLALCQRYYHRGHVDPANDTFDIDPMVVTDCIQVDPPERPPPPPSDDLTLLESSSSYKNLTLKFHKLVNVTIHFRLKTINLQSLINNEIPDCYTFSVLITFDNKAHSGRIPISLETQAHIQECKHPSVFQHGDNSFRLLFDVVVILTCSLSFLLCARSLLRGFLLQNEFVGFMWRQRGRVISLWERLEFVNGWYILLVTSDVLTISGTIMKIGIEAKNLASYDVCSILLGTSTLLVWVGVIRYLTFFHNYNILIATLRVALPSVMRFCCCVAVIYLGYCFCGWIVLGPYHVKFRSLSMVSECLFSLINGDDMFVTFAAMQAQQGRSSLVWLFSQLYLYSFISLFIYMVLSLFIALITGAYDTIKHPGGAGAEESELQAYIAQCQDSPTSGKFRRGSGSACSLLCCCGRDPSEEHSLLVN
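Calcium fluorescence in TRPML1-DL cells induced overnight with Tet: a 110 s read after compound pin addition, then a 110 s antagonist read after challenge with 54-4 at 4 uM final (EC80).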
Menin-MLL FL inh: qHTS Assay for Inhibitors Targeting the Menin-MLL Interaction in MLL Related Leukemias: Competition With Fluorescein Labeled MLL-derived Peptide | FP activity change, % at 61.4 µM | AID 1766, 2009 | 290,000 tested, under 10 active | Fluorescence polarization, fluorescein-MLL peptide displacement from menin; inconclusive = falling polarisation curve, or a change in total fluorescence; inactive = total fluorescence flat and polarisation flat or rising; no compound was filed as active; the % refers to the polarisation; negative = inhibition;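 note: % of control where 0% means no effect; inhibitors lower the polarisation; unlabelled MLL peptide was the positive control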
TRPML1 ag: qHTS for Agonists of the Human Mucolipin Transient Receptor Potential 1 (TRPML1) | Mucolipin-1 (Homo sapiens), Q9GZU1 | TRPML1-expressing cells, Ca2+ dye fluorescence, FDSS; host cell line not named in the record; reference of the full effect not given here | activation, % (no concentration beside the values) | 0.12% of 410,000 active; in the data active = activation above about 50%; inconclusive = about 30% to 50%; inactive = below about 30%; note: 0% is about no effect; the text of the record puts the active cut at 80%
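In this qHTS format, compounds were pin-transferred onto Ca8-dye-loaded TRPML1-DL cells induced with Tet overnight, and intracellular Ca2+ fluorescence was recorded kinetically for 110 s after a 10 s baseline. A subsequent 4uM final 54-4 (EC80) addition followed by a second 110 s read served as the antagonist phase.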
gsp antag: qHTS for Antagonists of gsp, the Etiologic Mutation Responsible for Fibrous Dysplasia/McCune-Albright Syndrome: qHTS | gsp-mutant cells, cAMP HTRF, 30 min; control for the full effect not named in the record | Potency, µM (highest dose often 76.9 µM), without a hit: top-dose activity change, negative = inhibition, most hits filed as inhibitors | 0.4% of 340,000 active | AID 624288, 2012; active = falling curve of any shape with a large fitted effect; inconclusive = falling curve, mostly with a smaller effect; inactive = flat or rising curve; cell line not stated here;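 note: intracellular cAMP measured with PDE inhibitor Ro 20-1724 present during compound exposure; potency is the fitted concentration of half-maximal effect; % is set by controls: 0 for no effect and ±100 for the full control effect; nearly all actives have a fitted effect of over 65% in size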
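Measurement of cellular cAMP by homogeneous time-resolved fluorescence following a 30 min compound exposure at 37C. The PDE inhibitor […] was present throughout; the assay buffer was DPBS with 0.05% BSA and 0.005% Tween 20.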
ClpP mod: qHTS Assay for Activators of ClpP; ATP-dependent Clp protease proteolytic subunit (Bacillus subtilis (strain 168)), P80244; purified B. subtilis ClpP, FRET peptide cleavage, 20 min; Potency, µM (top dose mostly 57.5 µM), without a hit: top-dose activity change, negative = active; 1.9% of 340,000 active; active = well fitted falling curve with a large enough effect; inconclusive = small, poorly fitted or top-dose-only effect; inactive = no such curve, though single readings can be large or run the other way; note: potency is the fitted concentration of half-maximal effect; the source files actives as falling curves though it sought activators and does not explain the sign; nearly all actives have a fitted effect of over 65% in size; many hits overshoot -100%
Target sequence (P80244 whole entry, looked up): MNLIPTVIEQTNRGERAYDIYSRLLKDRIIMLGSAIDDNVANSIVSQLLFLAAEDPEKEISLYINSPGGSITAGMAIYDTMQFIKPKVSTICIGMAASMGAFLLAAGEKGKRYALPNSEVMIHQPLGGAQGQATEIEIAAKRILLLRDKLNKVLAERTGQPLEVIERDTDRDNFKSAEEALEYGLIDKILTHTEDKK
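Purified B. subtilis ClpP, 10 microg/mL final in Tris/HCl pH8 with KCl, BSA, glycerol and Tween-20, cleaved an Abz/nitrotyrosine-quenched decapeptide. Fluorescence (ex 320, em 430) was read at 0 and 20 min at room temperature. Delta was normalized to 5.8 microM ADEP and DMSO/no-enzyme controls.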
gsp ag: qHTS for Agonist of gsp, the Etiologic Mutation Responsible for Fibrous Dysplasia/McCune-Albright Syndrome: qHTS. gsp mutant cells, cAMP HTRF, 30 min; control for the full effect not named in the record. Potency, µM (series often up to 76.9 µM), for the others: at the highest dose activation (cAMP increase), hits mostly activators. 0.13% of 340,000 active. AID 624287, 2012; active = well fitted activation curve with a large enough effect; inconclusive = small, poorly fitted or top-dose-only effect, or another doubt; inactive = no such curve, though single readings can be large or run the other way; cell line not stated here;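 note: phosphodiesterase inhibitor Ro 20-1724 added with compounds to block cAMP breakdown; potency is the fitted concentration of half-maximal effect; nearly all actives have a fitted effect of over 60% in size; about a fifth of the inactives were tested at one dose only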
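Cells stably selected in G418 were plated at 2000/well, grown 16-24 hr, then given compounds in DMSO with the PDE inhibitor […] (300 uM solution added) for 30 min at 37C; cAMP was read by HTRF.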
Starred values were filed as active, the others as inactive; ? = inconclusive; . = no result given; & = joins results of further samples; [ ] = dose if it differs, or a comment.

compound	TRPML1 ag	TRPML1 blocker	Menin-MLL FL inh	gsp antag	ClpP mod	gsp ag
COc1ccc(-c2ccc3c(c2)S(=O)(=O)c2cccc(C(=O)NCc4cc(C)oc4C(F)(F)F)c2C3=O)cc1OC	0.8	14	.	1%	-0.3%	9%
COc1ccc(Cc2nnc(SCC(=O)Nc3ccc(N4CCOCC4)cc3)o2)cc1	0.8	-9	0.0	-2%	.	-6%[15.4 µM]
Cc1sc2nc(CN(C(=O)c3cccs3)C3CCCC3)[nH]c(=O)c2c1C	0.4	-11	3.5	-23%	-2.2%	-28%
CCOC(=O)C1CCN(C(=O)COC(=O)CSc2ccccc2C)CC1	-0.4	-7	.	-6%	.	22%
CCCSc1nc2c3c(sc2c(=O)[nH]1)CC(C)(CC)OC3 (configuration not stated)	3.6	19	0.3	3%	.	-1%
COc1ccc(N=C2SC(CC(=O)Nc3cccc(Cl)c3)C(=O)N2Cc2ccco2)cc1 (configuration not stated)	2.3	-10	5.7	-9%	?	4%
COc1ccc(NC(=O)N(Cc2ccc(C)cc2)Cc2ccccn2)c(OC)c1	0.6	4	.	-6%	-5.5%	-39%[inhibitor]
CCN(CC(=O)Nc1c(F)cccc1F)C(=O)c1ccc2c(c1)OCO2	-0.3	-12	.	8%	-2.0%	-7%
CC(=O)Nc1ccc(NC(=O)CCC(=O)NCCO)cc1	0.5	-14	-1.5	8%	-1.1%	3%
COc1cccc(N2CCN(c3ccc4nnc(CCC(=O)Nc5ccc(C)cn5)n4n3)CC2)c1	1.2	11	.	-1%	-2.6%	23%
CN(/N=C/c1cccc(Br)c1)C1=NS(=O)(=O)c2ccccc21	1.9	11	0.4	-10%	.	1%
O=C1c2ccccc2C(=O)N1CC1c2ccccc2CCN1S(=O)(=O)c1cnc[nH]1 (configuration not stated)	0.5	6	0.0	-9%	-1.1%	-10%

compound	TRPML1 ag	TRPML1 blocker	Menin-MLL FL inh	gsp antag	ClpP mod	gsp ag
CC(C)(C)OC(=O)NNC1CC(=O)N(c2ccccc2F)C1=O (configuration not stated)	2.7	0	-0.2	14%	1.1%	-1%
CC(C)CC(c1nnnn1C(C)(C)C)N1CCN(C2CCCC2)CC1 (configuration not stated)	0.8	-3	4.4	6%	-0.9%	-23%
C[C@H]1CN(c2ccccc2)C(=O)[C@@H]1CC(=O)Nc1ccccc1	0.1	-8	.	.	-1.3%	18%
CC(C)OCCCn1c(=O)c2ccccc2n2c(CCC(=O)NC3CCN(Cc4ccccc4)CC3)nnc12	2.0	-18	-1.5	4%	-17%	?
CCOC(=O)C1=C(C)NC(=O)NC1c1c(OCC(=O)N2CCCCC2)ccc2ccccc12 (configuration not stated)	0.8	?	2.1	-12%	1.2%	4%
CC(C)NC[C@@H](O)c1ccc(O)c(O)c1	-0.9	-2	-16	2%	2.3%	.
CC1CCN(C(=O)c2[nH]c(C(F)(F)F)nc2-c2ccccc2)CC1	-0.6	-11	.	.	1.0%	.
COc1ccc(C(=O)NC(Cc2ccccc2)c2ccc3c(c2)OCCCO3)cc1 (configuration not stated)	1.7	2	-1.5	-4%	-0.9%	8%
Cc1ccc(OCCNCc2ccccc2)c(C)c1	6.7	13	-2.8	11%	-0.4%	-2%[15.4 µM]
Cn1c(SCC(=O)Nc2ccccc2-c2ccccc2)nnc1-c1ccco1	0.2	2	2.0	-2%	-1.6%	-39%[inhibitor]
COC(=O)c1ccc(N=Nc2c(C)[nH]n(-c3ccccc3)c2=O)cc1	0.2	?	-0.9	4%	1.8%	-28%
Cc1ccc(NC(=O)C2CCCN2C(=O)OCc2ccccc2)c(O)c1 (configuration not stated)	-0.8	13	-0.4	?	1.3%	31%

Sorted by the number under gsp ag (highest first): 3 from the list above.
| Molecule | gsp ag |
| --- | --- |
| C[C@H]1CN(c2ccccc2)C(=O)[C@@H]1CC(=O)Nc1ccccc1 | 18% |
| CCOC(=O)C1=C(C)NC(=O)NC1c1c(OCC(=O)N2CCCCC2)ccc2ccccc12 (configuration not stated) | 4% |
| CC(C)CC(c1nnnn1C(C)(C)C)N1CCN(C2CCCC2)CC1 (configuration not stated) | -23% |

Going on with the list:
compound	TRPML1 ag	TRPML1 blocker	Menin-MLL FL inh	gsp antag	ClpP mod	gsp ag
Cc1cc(OCCOCCNCc2ccccc2)ccc1C(C)C	-0.8	0	4.1	14%	2.3%	-1%
CC(=O)Oc1ccc2occ(C(=O)c3cccs3)c2c1	0.4	-2	3.8	4%	2.1%	-21%
Cc1cc(NN)nc(NS(=O)(=O)c2ccc(Cl)cc2)n1	1.4	1	-0.5	-4%	0.2%	?
CC(C)(CNC(=O)C1CCN(S(=O)(=O)c2cc([N+](=O)[O-])ccc2Cl)CC1)N1CCOCC1	1.6	-5	.	-10%	0.3%	-10%[15.4 µM]
O=C(CSc1nnc(CNC(=O)c2c(F)cccc2Cl)o1)c1ccccc1	-0.9	1	1.8	-8%	-1.7%	22%
O=c1[nH]cccc1-c1nc2ccccc2n1Cc1ccc(Cl)cc1	1.9	-11	-1.5	2%	4.1%	8%
Cc1ccc(S(=O)(=O)N2[C@@H](c3ccc(C(C)(C)C)cc3)C(C(=O)O)=CC[C@H]2c2cccs2)cc1	0.5	-7	.	-8%	-3.8%	.
CC(=O)Nc1ccc(C2NC(=S)N(c3ccccc3C(F)(F)F)C(C)=C2C(=O)N2CCOCC2)cc1 (configuration not stated)	-0.5	1	1.2	7%	.	-9%
Cc1c2c(nc3c(C(=O)NC4CC4)cnn13)CCCC2	-0.5	6	3.0	6%	-3.6%	-7%
CCc1nc2c(OCc3ccc(OC)cc3)cccn2c1N(C)C(=O)C(C)C	0.2	-16	.	.	-4.5%	.
Cc1ccc(S(=O)(=O)N(CC2CO2)c2ccccc2[N+](=O)[O-])cc1 (configuration not stated)	-0.6	7	0.0	-6%	.	2%
COc1ccc(-n2c(Cc3cccn3C)nnc2SCC(=O)Nc2ccc(C)cc2)cc1	2.2	17	2.2	-23%	2.0%	?

compound	TRPML1 ag	TRPML1 blocker	Menin-MLL FL inh	gsp antag	ClpP mod	gsp ag
O=C(Nc1ccc2c(c1)OCO2)c1ccc2nc([C@@H]3O[C@H](CO)[C@H](O)[C@H](O)[C@H]3O)[nH]c2c1	0.0	0	.	.	-0.9%	.
CCc1cc(C(=O)N2CCN(S(=O)(=O)c3cc(C)ccc3C)CC2)sc1C	1.9	-1	.	-32%	-1.1%	29%
O=c1cc(N2CCCCC2)c(-c2ccccc2)nn1Cc1ccccc1	2.7	-8	-1.2	?	.	-1%[15.4 µM]
COc1ccc(NC(=O)CSc2nc3ccccc3nc2N2CCCCC2)cc1	0.1&1.5	16&9	1.1	-20%	-20%&-25%	-46%[inhibitor]
Cc1ccc(NS(=O)(=O)c2cc3c(cc2C)NC(=O)CO3)cc1	-0.6	6	2.0	-1%	0.1%	-66%[inhibitor]
CCOC(=O)C1(Cc2ccc(OC)cc2)CCN(C(=O)c2csc(C)n2)CC1	2.1	21	-5.0	-3%	.	-34%[inhibitor]
O=C(COC(=O)/C=C/c1cccc([N+](=O)[O-])c1)NCCCN1CCCC1=O	-1.4	2	0.1	2%	0.2%	-1%[15.4 µM]
Cn1cc(C(=O)NCCO)c(=O)c2ccccc21	-0.3	-3	-4.2	5%	.	?
COc1ccc(CCNS(=O)(=O)c2ccccc2[N+](=O)[O-])cc1OC	0.3	7	9.1	-3%	-0.1%	6%
CCOC(=O)c1cnc2[nH]c3ccccc3n2c1=O	-0.1	6	0.6	-10%	4.3%	30%
Cc1sc2nc(CSC(C)C(=O)Nc3ccccn3)[nH]c(=O)c2c1C (configuration not stated)	1.6	9	.	10%	-6.9%	5%
O=c1oc2ccc3ccccc3c2cc1-c1nnc(Nc2ccc(Cl)cc2Cl)s1	1.0	16	.	.	-1.5%	.

compound	TRPML1 ag	TRPML1 blocker	Menin-MLL FL inh	gsp antag	ClpP mod	gsp ag
COC(=O)Nc1ccc(S(=O)(=O)N2CCCC(C(=O)Nc3cccc4c3OCCO4)C2)cc1 (configuration not stated)	0.1	2	-1.2	-21%	-2.6%	-2%
Cc1ccc(C(=O)NCC(c2ccc(F)cc2)N2CCOCC2)cc1 (configuration not stated)	.	.	5.9	0%	-0.1%	22%
CN1CC(O)(C(O)C(O)C(O)CO)SC1=S (configuration not stated)	-0.1	0	.	.	-1.0%	-25%
NC(=O)Nc1ccc(Oc2c(F)c(F)c(F)c(F)c2F)cc1	2.1	-2	0.3	1%	-0.7%	17%
CCOc1ccc(CCN2C(=S)N([C@@H](CC(C)C)CN3CCC[C@@H]3CN3C(=S)NC[C@@H]3Cc3ccc(O)cc3)C[C@@H]2CC(C)C)cc1	-0.2	16	.	.	-1.9%	.
O=C1CCC([N+](=O)[O-])C(c2ccc(Cl)c([N+](=O)[O-])c2)N1 (configuration not stated)	-0.7	2	-0.5	10%	.	15%[15.4 µM]
COC(=O)[C@]1(Cc2ccccc2)N[C@H](c2ccc(-c3cc(C(C)=O)cs3)cc2)[C@@H]2C(=O)N(C)C(=O)[C@@H]21	0.7	26	.	-4%	18µM*	.
Cc1cccc(NC(=O)C2CCCN(S(=O)(=O)c3c(C)noc3/C=C/N(C)C)C2)c1C (configuration not stated)	3.0	-5	.	.	-5.4%	.
CCCn1c(=N)n(CC(=O)c2ccc(OCC(=O)OC)cc2)c2ccccc21	1.1	1	.	8%	-1.9%	-1%
O=C(Nc1ccccn1)C(=O)Nc1ccccn1	0.0	4	2.0	6%	2.3%	2%
COc1ccc(CNC(=O)C2CCCN2C(=O)Nc2cccc(Cl)c2)cc1 (configuration not stated)	-0.5	4	.	.	0.7%	2%
COC(=O)c1cc2sc(Cl)cc2n1CC(=O)NCCC(C)C	-0.5	-3	0.6	6%	-3.0%	?
CCOC(=O)C1=CCN(S(=O)(=O)c2ccccc2C)C1c1cccc(F)c1 (configuration not stated)	1.4	21	.	.	-2.1%	.
Cc1nc2c(sc3nc(N4CCOCC4)c4c(c32)CC(C)(C)OC4)c(-c2ccc(Cl)cc2)c1C(=O)O	1.7	-14	?	?	-7.5%	8%
Cn1ccc2cc(OCc3ccccc3)ccc21	2.3	-8	.	1%	-1.4%	-11%[15.4 µM]

Rows are unselected. About 2.1% of those tested had a hit in this group.
